# Source: PubChem BioAssay
# CtBP-E1A inh: CtBP/E1A binding inhibition; activity change, % (test concentration not listed); AlphaScreen GST-E1A/His-CtBP binding, 1536-well; stronger effect = lower value; control for the full effect not named in the record; AID 651724; 340,000 compounds, 0.49% hits; in the data active means activity change below about -65%; inconclusive means about -30% to -65%; inactive means above about -30%; note: % is set by controls: 0 for no effect and ±100 for the full control effect
#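 Homogeneous bead-based format: GST-tagged E1A captured on glutathione donor beads, His-tagged CtBP on nickel acceptor beads; compounds precede bead addition by 2 h at 37 °C.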
# D2 PAM: human D2 receptor positive allosteric modulation | AID 624464 | DiscoveRx D2 beta-arrestin cells, luminescence, 90 min; 100% = 57 uM dopamine signal | P14416 | 360,000 compounds, 0.23% hits | potentiation, % (no concentration beside the values); active = potentiation of 50% or more; inconclusive = 30% to 50%; inactive = 30% or less;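 note: compound concentration not given in the record; tested on top of an EC20 dose of dopamine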
#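 PathHunter beta-arrestin assay in DiscoveRx D2 cells. Compounds were added with an EC20 of dopamine (50 nM final) for 90 min at 37 deg C. Luminescence was read 1 h after detection reagent, with 57 uM dopamine as the EC100 control.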
# Six1-Eya2 inh: Six1/Eya2 interaction inhibition; AID 651725; activity change, % (concentration not given with the values); AlphaScreen GST-Six1/His-Eya2 binding, biochemical; stronger effect = lower value; control for the full effect not named in the record; 360,000 compounds, 0.56% hits; in the data active = activity change below about -65%; inconclusive = about -30% to -65%; inactive = above about -30%; note: % is set by controls: 0 for no effect and ±100 for the full control effect
# Target sequence (O00167 whole entry, looked up): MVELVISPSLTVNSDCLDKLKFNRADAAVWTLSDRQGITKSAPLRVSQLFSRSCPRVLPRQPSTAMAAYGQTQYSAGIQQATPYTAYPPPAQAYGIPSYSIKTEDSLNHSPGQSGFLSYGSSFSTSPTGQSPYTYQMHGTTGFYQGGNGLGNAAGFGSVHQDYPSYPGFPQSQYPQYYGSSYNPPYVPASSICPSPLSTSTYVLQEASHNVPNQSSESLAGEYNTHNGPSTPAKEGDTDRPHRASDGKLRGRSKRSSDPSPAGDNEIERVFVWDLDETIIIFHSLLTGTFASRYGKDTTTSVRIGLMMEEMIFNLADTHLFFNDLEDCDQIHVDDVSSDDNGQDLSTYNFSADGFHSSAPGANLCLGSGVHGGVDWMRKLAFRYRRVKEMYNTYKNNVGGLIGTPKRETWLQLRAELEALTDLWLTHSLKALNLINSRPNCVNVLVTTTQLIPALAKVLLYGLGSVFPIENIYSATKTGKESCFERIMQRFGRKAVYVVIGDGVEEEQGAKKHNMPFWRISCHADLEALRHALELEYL
# Target sequence (Q15475 whole entry, looked up): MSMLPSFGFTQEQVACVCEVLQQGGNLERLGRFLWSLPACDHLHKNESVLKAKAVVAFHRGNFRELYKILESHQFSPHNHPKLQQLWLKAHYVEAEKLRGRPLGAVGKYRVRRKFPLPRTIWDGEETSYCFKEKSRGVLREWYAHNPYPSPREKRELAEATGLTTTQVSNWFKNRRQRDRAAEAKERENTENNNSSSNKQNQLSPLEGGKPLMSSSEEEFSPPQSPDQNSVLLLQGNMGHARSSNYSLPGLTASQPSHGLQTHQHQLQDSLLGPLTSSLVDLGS
#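 AlphaScreen with GST-Six1 and His-Eya2 (5X mix: 250 nM and 500 nM), glutathione donor and nickel acceptor beads; buffer 50 mM Tris pH 8.0, 300 mM NaCl, 1 mM TCEP; 1 h at 37 C in the dark.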
# TRPML1 agonist: activates the human TRPML1 channel | Q9GZU1 | TRPML1-expressing cells, Ca2+ dye fluorescence, FDSS; host cell line not named in the record; reference of the full effect not given here | activation, % (no concentration beside the values) | 410,000 compounds, 0.12% hits; in the data active = activation above about 50%; inconclusive = about 30% to 50%; inactive = below about 30%; note: 0% is about no effect; the text of the record puts the active cut at 80%
#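 Tetracycline-induced TRPML1-DL cells are seeded and incubated overnight before loading with a no-wash Ca2+ dye and quencher. Agonist activity is taken from the 110 s fluorescence read following compound pin-transfer on an FDSS, before EC80 54-4 challenge.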
# TRPML1 inh: inhibitors of human TRPML1 channel; activity change, negative = inhibition, % (no concentration beside the values); TRPML1-inducible cells, Ca2+ dye fluorescence, FDSS; stronger effect = lower value; inhibition of EC80 agonist-evoked calcium signal; AID 624415; Q9GZU1; 390,000 compounds, 0.02% hits; in the data active means activity change below about -50%; inconclusive means about -30% to -50%; inactive means above about -30%;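 note: stimulus is agonist 54-4 at its EC80 concentration; % is set by controls: 0 for no effect and ±100 for the full control effect; compound concentration not given in the record; the text of the record puts the active cut at -80%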
#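 Tet-induced TRPML1-DL cells loaded with Ca8 no-wash calcium dye were read kinetically on FDSS. Compound addition was followed by EC80 agonist 54-4 (4 uM final); inhibition was read over 110 s.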
# TRPV1 PAM: human TRPV1 potentiation; Q8NER1; 320,000 compounds, 0.02% hits; TRPV1-expressing cells, Fluo-8 calcium influx, capsaicin EC20 potentiation; host cell line not named in the record; control for the full effect not named in the record; AID 540277; potentiation, % at 8.33 µM; active means potentiation above 80%; inconclusive means 30% to 80%; inactive means below 30%; note: 0% is about no effect
#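 TRPV1-expressing cells were cultured overnight at 35.5C and loaded with Fluo-8 calcium dye for 40 to 90 min at room temperature. After a 10 s baseline, compound was added and calcium influx was read kinetically for 3 min (ex 480/em 520 nm).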
# The depositor's hits bear a star; ? = inconclusive; . = not tested or not shown; & = joins results of further samples.
SMILES,CtBP-E1A inh,D2 PAM,Six1-Eya2 inh,TRPML1 agonist,TRPML1 inh,TRPV1 PAM
CCOC(=O)N1CCN(C(=O)C2CCC(=O)N(Cc3cccc(C(F)(F)F)c3)C2)CC1 (stereo unspecified),-1,-11,1,0.6,35,-10
O=C(CN1CCCCCC1)Nc1ccc(F)c(F)c1F,-5,-15,5,0.1,-11,-7
CSc1ccc(C(=O)C2CCCN(S(=O)(=O)c3c(C)noc3C)C2)cc1 (stereo unspecified),-1,16,5,1.1,40,3
CCOC(=O)C1CCCN(CCSc2ccc(C)cc2)C1 (stereo unspecified),-2,-10,-1,0.9,1,-12
CCNC(=O)C1(C)CCCN(C(=O)c2c(C)noc2C)C1 (stereo unspecified),-3,-3,-1,-0.4,.,.
Cc1cc(C)c(S(C)(=O)=O)c(Oc2ccccc2C)n1,-5,-18,-4,-0.4,1,11
N#C/C(=C\c1ccccc1O)C(=O)Nc1ccccn1,-8,-2,-9,1.8,7,-10
CCS(=O)(=O)N1CCN=C1SC(C)c1ccccc1 (stereo unspecified),.,5,4,-0.3,1,7
N#C/C(=C/C1=C(N2CCOCC2)C(=C/c2ccc(Cl)cc2Cl)/CC1)C(=O)Nc1ccccc1F,0,-1,-2,1.3,4,.
O=c1[nH]nc(Cc2ccc(-c3cccc(Cl)c3)o2)c2ccccc12,0,-11,-1,2.2,10,11
COc1ccc2c(C)cc(SCC#N)nc2c1,9,-5,4,1.5,-11,9
CCn1c(SCC(=O)Nc2sc(C)c(C)c2C#N)nnc1C(C)C,1,-6,0,-0.4,-2,-7
Cc1ccc(-c2nnc(N(C)C(=O)c3cccnc3)s2)cc1,0,12,0,2.0,11,-8
COc1ccc(Br)cc1S(=O)(=O)NNC(=O)c1c(C)nc2ccccn12,.,1,-2,-0.4,-3,15
CCSc1nc2ccccc2n1CC(N)=O,9,-6,11,0.7,-15,4
CCCCN(C)C(=O)C1CCN(Cc2ccccn2)CC1,-3,5,4,0.5,42,8
CC(CN(C)Cc1ccccc1)OC(=O)c1ccccc1F (stereo unspecified),5,-37,2,1.7,39,-13
COc1cccc(-c2nc(CC(=O)O)cs2)c1OC,-8,-14,2,2.2,8,4
COc1ccc(C2CC(c3c(-c4ccccc4)c4cc(Cl)ccc4[nH]c3=O)=NN2C(=O)CCC(=O)O)cc1 (stereo unspecified),-4,-8,-1,1.0,-10,-14
COc1ccc(C(=O)c2ccc(Cl)cc2)cc1,21,-19,15,2.0,15,5
Cc1nc(N2CCN(S(=O)(=O)c3ccccc3)CC2)c2c3c(sc2n1)CC(C)CC3 (stereo unspecified),-3,-19,-3,-0.3,3,1
CC(=O)Nc1ccc(S(=O)(=O)NNC(=O)c2ccc(C)cc2)cc1,5,10,3,4.1,-1,1
Cn1nnc(NC(=O)CSc2ccc(Cl)cc2)n1,1,-5,-1,-0.3,-2,?
N#CC1(c2ccccc2)CCCN1C(=O)c1ccccc1Cl (stereo unspecified),5,-11,9,-0.9,-4,6
COc1cc(C(=O)NC2CC3CCCC(C2)N3Cc2ccccc2)cc(OC)c1OC (stereo unspecified),9,-7,-2,-0.6,6,17

# By substructure, the entries above with an NH in an aromatic ring (two)
SMILES,CtBP-E1A inh,D2 PAM,Six1-Eya2 inh,TRPML1 agonist,TRPML1 inh,TRPV1 PAM
O=c1[nH]nc(Cc2ccc(-c3cccc(Cl)c3)o2)c2ccccc12,0,-11,-1,2.2,10,11
COc1ccc(C2CC(c3c(-c4ccccc4)c4cc(Cl)ccc4[nH]c3=O)=NN2C(=O)CCC(=O)O)cc1 (stereo unspecified),-4,-8,-1,1.0,-10,-14

# The main list resumes with the 3 entries that preceded the break.
SMILES,CtBP-E1A inh,D2 PAM,Six1-Eya2 inh,TRPML1 agonist,TRPML1 inh,TRPV1 PAM
Cn1nnc(NC(=O)CSc2ccc(Cl)cc2)n1,1,-5,-1,-0.3,-2,?
N#CC1(c2ccccc2)CCCN1C(=O)c1ccccc1Cl (stereo unspecified),5,-11,9,-0.9,-4,6
COc1cc(C(=O)NC2CC3CCCC(C2)N3Cc2ccccc2)cc(OC)c1OC (stereo unspecified),9,-7,-2,-0.6,6,17
O=C(NNC(=O)c1cc2ccccc2o1)c1ccc(F)cc1,-3,-15,7,0.8,-11,-11
C=CCCC(=O)N1C[C@@H](CO)[C@@H](NC)C[C@H]1c1ccccc1Br,-20,-1,-17,-0.7,.,.
CC(C)(C)C(=O)COC(=O)C1=NN(c2ccccc2)C(=O)CC1,1,-4,7,-1.0,-11,3
CC(C)(C)NCc1cccn1-c1sc2c(c1C#N)CCCC2,3,-41,-11,-0.3,-2,2
Cn1c(=O)c2[nH]c(CCc3ccncc3)nc2n(C)c1=O,1,0,4,-0.4,4,.
Fc1ccc(N2CCN(Cc3cn[nH]c3-c3ccccc3)CC2)cc1,-1,-15,-7,1.0,-2,.
CCOc1ccc(Cc2onc3c2C(=O)CCC3)cc1OCC,2,-3,1,0.5,-29,-2
Cc1nnc2c(N(C)S(=O)(=O)c3ccccc3)nc3ccccc3n12,20,1,22,-0.7,-4,-11
CCNC(=S)N1CCN(c2ncccn2)CC1,-1,-13,1,1.1,-15,-10
CCc1nc2ccc(C(=O)NCCc3ccc(OC)c(OC)c3)cc2nc1CC,-14,8,-5,1.1&-0.2,-16&13,-7
O=C(Nc1ccc(F)cc1F)c1ccc(S(=O)(=O)N2CCCCC2)cc1,18,-16,-1,-0.1,8,-8
Cc1ccc(C(=O)Nc2ccc(-c3csc(C)n3)cc2)cc1,-11,-25,-4,-0.6,2,1
CC1CN(C2=Nc3cccc4cccc2c34)CC(C)O1 (stereo unspecified),0,-5,12,0.9,2,6
O=C(CN1CCOCC1)Nc1ncc(Cc2ccccc2Cl)s1,8,3,-2,-0.5,-5,23
O=C(NC1CCCc2ccccc21)c1ccc(F)cc1F (stereo unspecified),3,4,7,-0.8,29,17
COc1ccc(N2CC(C(=O)NCCc3ccc(Cl)cc3)CC2=O)c(OC)c1 (stereo unspecified),4,-15,15,-0.2,-10,-28
CC(=N[C@@H]1CCCC[C@H]1N=C(C)c1ccccc1O)c1ccccc1O,6,-1,-10,0.4,2,-1
CCOc1ccc(NC(=O)CN(C)C(=O)CCc2ccccc2Cl)cc1OCC,-3,-29,-6,1.5,20,27
N#Cc1ccc(-c2nc3c(Cl)cc(C(F)(F)F)cn3c2Cc2ccsc2)cc1,9,.,1,0.1,.,.
O=c1ccc2ccc(O)cc2o1,0,-11,0,.,.,.
Cc1ccc(SCC(=O)NCCCN2CCOCC2)cc1,2,6,-1,-0.2,11,6
c1ccc2oc(SCc3nc4ccccc4s3)nc2c1,29,-12,21,0.6,-10,-3
Cc1ccccc1CN(C)C(=O)[C@H](Cc1ccccc1)NC(=O)c1ccco1,.,7,3,0.5,33,-20
OC(c1ccccc1)c1nc(-c2cccc3cccnc23)cs1 (stereo unspecified),-1,-10,-5,-0.3,.,.
COc1cccc(OC)c1OCCCOc1c(OC)cccc1OC,6,13,1,0.5,3,-8

# At a glance, some entries already given.
SMILES,CtBP-E1A inh,D2 PAM,Six1-Eya2 inh,TRPML1 agonist,TRPML1 inh,TRPV1 PAM
CCOc1ccc(NC(=O)CN(C)C(=O)CCc2ccccc2Cl)cc1OCC,-3,-29,-6,1.5,20,27
N#Cc1ccc(-c2nc3c(Cl)cc(C(F)(F)F)cn3c2Cc2ccsc2)cc1,9,.,1,0.1,.,.
O=c1ccc2ccc(O)cc2o1,0,-11,0,.,.,.

# Remaining list, next part:
SMILES,CtBP-E1A inh,D2 PAM,Six1-Eya2 inh,TRPML1 agonist,TRPML1 inh,TRPV1 PAM
O=C(O)CCCCCCNC(=O)c1cncc(O)c1,.,-4,18,0.7,0,-3
Cc1nc(-c2ccc(F)cc2)c(CC(=O)N(C)CC(=O)Nc2cccc(F)c2)s1,6,-14,2,-0.6,-9,.
O=S1(=O)CCN2C(c3ccco3)=CSC2=N1,1,12,1,-0.5,-2,4
O=C(c1cccs1)N1CCN(C/C=C/c2ccccc2)CC1,-3,-22,-5,-0.4,-9,5
NC(N)=NS(=O)(=O)c1ccc(N)cc1,-8,-23,7,0.8,7,9
COC(=O)c1ccccc1NC(=O)CC(=O)Nc1ccccc1C(=O)OC,.,-7,9,1.9,-9,-7
Cn1c(SCC(=O)Nc2ccc3c(c2)OCCO3)nnc1-c1ccncc1,-2,-6,-8,0.9,32,8
O=C(CSc1ccc(Br)cc1)Nc1ccccc1N1CCOCC1,-21,1,-9,0.4,-6,-7
CCCc1nc2oc3c(=O)[nH]cnc3c2c2c1CCCC2,-3,-17,-26,0.2,19,3
CC(C)c1ccc(NC(=O)C(c2ccc3c(c2)OCO3)N2CCC3(CC2)OCCO3)cc1 (stereo unspecified),-3,-28,-4,0.7,-10,-1
COC(=O)C1=CN(c2cccc(Cl)c2)C=C(C(=O)OC)C1c1cccc(OC)c1,56,-7,40,0.1,2,-14
COc1ccc(Cn2nnnc2CN2CCc3ccccc32)cc1,-12,-9,-15,0.0,-7,20
CCOC(=O)[C@H]1[C@H]2COc3cc(OC)ccc3[C@@H]2N2C(=O)CN(Cc3ccccc3)C(=O)[C@@]12C,5,-14,-1,0.2,2,-2
O=C(CC1Nc2cccc3cccc(c23)NC1=O)Nc1ccccc1 (stereo unspecified),-2,10,-21,0.4,-19,4
O=C(O)c1ccc(NS(=O)(=O)/C=C/c2ccccc2)cc1,0,-33,0,0.1,-3,5
O=C(Nc1cccc(S(=O)(=O)N2CCCCC2)c1)c1ccccn1,-7,3,-4,1.6,69,-7
CCCn1nnnc1NC(=O)COc1ccc(Br)cc1,-8,0,-20,-0.5,-1,-12
Cc1ccc(N2CC(C(=O)Nc3cccc(S(=O)(=O)N4CCOCC4)c3)CC2=O)cc1 (stereo unspecified),6,-7,-8,-1.0,1,.
CC1(C)CC(NC(=O)c2cccc(F)c2)CC(C)(C)N1,7,-10,1,-0.2,-2,11
CCOC(=O)c1c(NC(=S)NCCc2ccccc2)sc2c1CC(C(C)C)OC2 (stereo unspecified),-3,-14,0,0.0,46,2
CN(C)S(=O)(=O)Nc1cccc(-c2cn3c(n2)SCC3)c1,.,-17,8,0.1,37,-1
COc1ccc(/C=C/C(=O)Nc2ccc(C)c(S(=O)(=O)N3CCOCC3)c2)cc1,?,-9,-7,-0.5,0,.
O=C(COc1ccc(Br)cc1)NNC(=O)c1cc(S(=O)(=O)N2CCOCC2)ccc1Cl,4,3,4,2.6,17,.
O=C1c2ccccc2S(=O)(=O)c2cc(N3CCN(c4ccccc4)CC3)ccc21,5,-1,-1,-0.9,7,.
Cc1ccc(C(=O)NCC(=O)OCC(=O)NCCc2ccccc2)s1,6,-7,7,0.0,-5,-6
# (more compounds)
SMILES,CtBP-E1A inh,D2 PAM,Six1-Eya2 inh,TRPML1 agonist,TRPML1 inh,TRPV1 PAM
c1ccc(SC23CC4CC(CC(C4)C2)C3)nc1,0,-7,29,0.0,24,.
NC(=O)C(CC(=O)O)NC(=O)[C@@H]1CCOc2c(I)cc([N+](=O)[O-])cc2C(=O)N[C@@H](CO)C(=O)N[C@@H](Cc2ccc(O)cc2)C(=O)N1 (stereo partly specified),-3,-54,-17,-0.7,-10,11
COc1ccccc1NC(=O)c1ccc(S(=O)(=O)N(C)c2ccccc2OC)cc1,.,-12,3,0.6,24,.
Cc1ccc(N2C(=O)Nc3ccccc3C2(O)C(=O)NCCCOC(C)C)cc1C (stereo unspecified),5,7,3,0.4,-12,20
COc1ccc(/C=C/C(=O)Nc2nonc2NC(C)=O)cc1,-9,11,-4,-0.2,-29,-1
c1coc(CNC2CCCCC2)c1,3,-2,6,0.1,8,8
